Screening results (PubChem BioAssay)
TRPML1 agonist: activates the human TRPML1 channel; hit rate 0.12% among 410,000; activation, % (test concentration not listed); Q9GZU1; TRPML1-expressing cells, Ca2+ dye fluorescence, FDSS; host cell line not named in the record; reference of the full effect not given here; in the data active = activation above about 50%; inconclusive = about 30% to 50%; inactive = below about 30%; further: 0% is about no effect; the text of the record puts the active cut at 80%
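Tetracycline-induced TRPML1-DL cells are seeded and incubated overnight before loading with a no-wash Ca2+ dye and quencher. Agonist activity is taken from the 110 s fluorescence read following compound pin-transfer on an FDSS, before EC80 54-4 challenge.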
Six1-Eya2 blk: blocks human Six1 binding to Eya2. Q15475+O00167. AlphaScreen GST-Six1/His-Eya2 binding, biochemical; stronger effect = lower value; control for the full effect not named in the record. activity change, % (no concentration beside the values). hit rate 0.56% among 360,000; in the data active = activity change below about -65%; inconclusive = about -30% to -65%; inactive = above about -30%; further: on the % scale 0 is the no-effect control and ±100 the full control effect; compound concentration not given in the record
Target sequence (O00167 whole entry, looked up): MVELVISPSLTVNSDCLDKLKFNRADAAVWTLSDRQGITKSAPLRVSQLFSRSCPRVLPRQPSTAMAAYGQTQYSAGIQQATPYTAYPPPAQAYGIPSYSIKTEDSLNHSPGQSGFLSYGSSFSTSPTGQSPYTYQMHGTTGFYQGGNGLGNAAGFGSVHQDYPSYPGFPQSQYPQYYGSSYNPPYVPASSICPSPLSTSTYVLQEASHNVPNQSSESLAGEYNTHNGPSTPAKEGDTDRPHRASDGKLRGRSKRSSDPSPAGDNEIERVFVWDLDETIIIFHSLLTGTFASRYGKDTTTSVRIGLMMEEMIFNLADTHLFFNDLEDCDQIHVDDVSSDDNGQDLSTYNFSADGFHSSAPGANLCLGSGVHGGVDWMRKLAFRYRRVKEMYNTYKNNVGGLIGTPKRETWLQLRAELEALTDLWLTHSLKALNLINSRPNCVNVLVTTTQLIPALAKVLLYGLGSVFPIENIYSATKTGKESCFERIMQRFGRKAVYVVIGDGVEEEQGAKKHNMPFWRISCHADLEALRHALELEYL
Target sequence (Q15475 whole entry, looked up): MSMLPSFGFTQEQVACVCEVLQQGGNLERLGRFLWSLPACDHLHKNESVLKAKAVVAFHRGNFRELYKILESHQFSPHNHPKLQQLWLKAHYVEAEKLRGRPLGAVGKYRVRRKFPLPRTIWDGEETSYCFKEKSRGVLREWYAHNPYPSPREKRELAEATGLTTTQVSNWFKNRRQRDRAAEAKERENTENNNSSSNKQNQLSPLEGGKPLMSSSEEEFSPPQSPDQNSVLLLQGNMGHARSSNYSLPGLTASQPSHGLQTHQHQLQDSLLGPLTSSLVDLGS
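AlphaScreen with GST-Six1 and His-Eya2 (5X mix: 250 nM and 500 nM), glutathione donor and nickel acceptor beads; buffer 50 mM Tris pH 8.0, 300 mM NaCl, 1 mM TCEP; 1 h at 37 C in the dark.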
TRPML1 inh: inhibitors of human TRPML1 channel | Q9GZU1 | TRPML1-inducible cells, Ca2+ dye fluorescence, FDSS; stronger effect = lower value; inhibition of EC80 agonist-evoked calcium signal | activity change, negative = inhibition, % (test concentration not listed) | hit rate 0.02% among 390,000; in the data active means activity change below about -50%; inconclusive means about -30% to -50%; inactive means above about -30%;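 further: stimulus is agonist 54-4 at its EC80 concentration; on the % scale 0 is the no-effect control and ±100 the full control effect; compound concentration not given in the record; the text of the record puts the active cut at -80%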
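TRPML1-DL cells, Tet-induced overnight (~16 h, 37 °C) at 1,500 cells/well, were loaded with Ca8 no-wash dye plus quencher for 45-90 min at room temperature. Compounds were pinned during FDSS kinetic reading; agonist 54-4 at EC80 (4 uM final) then added.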
PINK1 expr mod: PINK1 expression modulation; PINK1 immunofluorescence, high-content cytometry, 24 h; Potency, µM (top dose mostly 76.6 µM), for inactives: at the highest dose activation (PINK1 increase), hits mostly activators; hit rate 0.2% among 410,000; active = well fitted activation curve with a large enough effect; inconclusive = small, poorly fitted or top-dose-only effect; inactive = flat fitted curve, though single readings scatter; cell line not stated here;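 further: potency means the concentration at half of the fitted maximal effect; % of control where 0% means no effect; nearly all actives have a fitted effect of over 65% in size; a mitochondrial uncoupler was the plate control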
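Cells are seeded, rested 12 hours, then given compound at five concentrations or DMSO for 24 hours. After fixation, blocking and antibody staining, PINK1 amount and mitochondrial localization are scored; CCCP serves as control.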
D2 PAM: potentiates the human D2 dopamine receptor allosterically; P14416; DiscoveRx D2 beta-arrestin cells, luminescence, 90 min; 100% = 57 uM dopamine signal; potentiation, % (test concentration not listed); hit rate 0.23% among 360,000; active = potentiation of 50% or more; inconclusive = 30% to 50%; inactive = 30% or less;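 further: compound concentration not given in the record; tested on top of an EC20 dose of dopamine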
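PathHunter D2 cells, attached overnight at 37 deg C, received compound in DMSO plus dopamine at EC20 (50 nM final) for 90 min at 37 deg C. Beta-arrestin recruitment was read as luminescence after 1 h with detection reagent at ambient temperature.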
D2 agonist: human D2 receptor agonism in beta-arrestin assay; hit rate 0.084% among 360,000; P14416; DiscoveRx PathHunter D2 beta-arrestin, luminescence, 90 min; 100% = 57 uM dopamine signal; AID 624465; activation, % (concentration not given with the values); in the data active = activation above about 40%; inconclusive = about 15% to 40%; inactive = below about 15%; further: compound concentration not given in the record; the text of the record calls up to 30% inactive
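DiscoveRx PathHunter D2 beta-arrestin cells (2,100/well) attached overnight, then compound-stimulated 90 min at 37 C in HBSS/10 mM HEPES/0.1% Tween-20 buffer; beta-galactosidase complementation read by luminescence after 1 h at ambient temperature. Dopamine 57 uM final (EC100) as control.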
* = called active by the depositor; ? = inconclusive; · = no result given; [ ] = another dose, or the depositor's remark.

#	molecule	TRPML1 agonist	Six1-Eya2 blk	TRPML1 inh	PINK1 expr mod	D2 PAM	D2 agonist
1	O=C(CN1CCCC(O)C1)N1c2ccccc2Sc2ccc(C(F)(F)F)cc21 (stereo unspecified)	-0.7	-5	11	-0.5%	-1	-4.1
2	CCC(=O)N1CCC1(C)C(=O)Nc1ccccc1 (stereo unspecified)	0.0	2	·	2.7%	-1	-0.6
3	CN(CCC#N)C(=O)COC(=O)c1ccccc1OCc1ccccc1Cl	1.0	2	0	4.3%	-2	7.3
4	CC(C)(C)OC(=O)CN1C(=O)NC(Cc2c[nH]c3ccccc23)C1=O (stereo unspecified)	0.9	-7	?	-3.4%	0	-3.8
5	CCCS(=O)(=O)NC(=O)C1(C)CCN(C(=O)c2cc(C(C)(C)C)nn2C)C1 (stereo unspecified)	0.2	-1	0	0.6%	-6	-3.7
6	COc1cccc(C2NC(c3cccc(OC)c3O)C(C)C(=O)C2C)c1O (stereo unspecified)	0.4	-4	6	14%[38.3 µM]	-8	-1.3
7	COC(=O)C1=C(C(=O)OC)[C@]2([C@H]3CC=CCN[C@@H](Cc4ccccc4)C(=O)N3Cc3ccccc3)C=C[C@H]1O2	2.0	-17	78	0.7%	-6	-0.6
8	CC(NC(=S)NC(=O)c1ccccc1)c1ccccc1 (stereo unspecified)	-1.0	-14	-4	5.9%	-23	-7.5
9	CC1(C)Cc2c(sc(NC(=O)COc3ccc(Cl)cc3)c2C#N)C(C)(C)N1	0.3	-6	10	6.3%	-7	-2.9
10	COc1ccc(CNC(=O)COc2cc(O)c3c(c2)OC(C)(C)CC3=O)c(OC)c1	·	-2	·	-0.4%	-11	-5.4
11	CCOC(=O)Cn1nc(-c2ccccc2)c2cnc3ccc(C)cc3c21	1.1	-3	-1	10%	-10	-4.4
12	CCCCCCc1c(O)nc(SCC(=O)O)[nH]c1=O	-0.2	7	33	1.9%	-3	-4.1
13	O=C(NCCCN1CCOCC1)c1cc(S(=O)(=O)N2CCN(c3ccccc3)CC2)ccc1Cl	-0.2	-2	4	-0.6%	-2	0.6
14	COc1ccccc1-c1cc(C(=O)N/N=C/C=C/c2ccccc2[N+](=O)[O-])c2ccccc2n1	0.7	-27	12	-0.1%	-7	-2.8
15	C=CC[C@@H](CC(=O)N[C@@H](CO)Cc1ccccc1)C(=O)N[C@@H](COC(=O)[C@H](CC=C)CC(=O)OC(C)(C)C)Cc1c[nH]c2ccccc12	1.6	-11	2	0.3%	-1	1.7
16	Cc1cc(C)c(C)c(OCC(=O)Nc2ccc(S(=O)(=O)Nc3nc(C)cc(C)n3)cc2)c1	1.0	·	-9	-0.3%	·	·
17	COc1ccc(N2CC(C(=O)Nc3c(C(N)=O)oc4ccccc34)CC2=O)cc1 (stereo unspecified)	0.5	0	-9	5.4%	6	-1.8
18	O=C(N/N=C/C(Br)=C/c1ccccc1)c1ccccc1F	-0.4	?	6	5.8%	-8	-3.0
19	COc1ccccc1NS(=O)(=O)NC(=O)c1cn(C)c2ccccc12	0.1	14	4	-1.3%	-5	-0.6
20	O=C1N/C(=N/N=C/c2ccco2)SC1Cc1ccccc1 (stereo unspecified)	2.1	-13	-10	1.0%	-16	-2.3
21	CCOC(=O)C1=C(NC(=S)NC(=O)c2ccccc2)c2ccccc2CC1(C)C	9.7	-21	11	0.3%	-24	-3.7
22	COc1cccc(CCN2C(=O)C(=O)N([C@@H](CNCc3ccccc3)Cc3ccccc3F)C[C@@H]2C(C)(C)C)c1	1.0	-11	-18	?	-14	-2.2
23	COc1cc(NS(=O)(=O)c2ccc(NC(C)=O)cc2)cc(OC)c1	0.3	6	-5	-0.3%	3	2.9
24	COC(=O)C1=C(C)Nc2nc(-c3ccccc3)nn2C1c1ccc(C)o1 (stereo unspecified)	3.4	-11	4	6.8%	-4	-4.5
25	Cc1ccc(-c2noc(CCCC(=O)NCc3ccco3)n2)cc1	-0.6	·	-16	0.5%	·	·
26	CCC(C)(C)n1nnnc1C(c1ccc2ncccc2c1)N1CCCC(C)C1 (stereo unspecified)	0.6	-1	21	0.7%	10	-3.6
27	CCOc1ccc(C(=O)Nc2ccc3c(c2)OCCO3)cc1Br	1.1	·	-13	2.3%	·	·
28	CCCCc1ccc(/C(C)=N/Nc2cc(N3CCOCC3)nc(C)n2)cc1	0.5	-4	-9	?	-5	-1.9
29	C=CCn1c(C)cc(C(=O)CSc2nnc3c(Cl)cc(Cl)cn23)c1C	-0.6	6	-8	0.6%	-18	-0.3
30	O=C1CN(c2ccccc2Cl)C(=O)CN1c1ccccc1Cl	-0.3	5	4	2.2%[38.3 µM]	-8	-3.0
31	Cc1ccc(N2CC(C(=O)Nc3cccnc3)CC2=O)cc1 (stereo unspecified)	-0.3	3	8	-2.6%[38.3 µM]	-8	-1.7
32	Cc1ccc(C(=O)N2c3ccc(F)cc3CCC2C)o1 (stereo unspecified)	2.6	-3	5	-1.7%	-11	-1.4
33	CCOc1ccc2[nH]c3nc(SCC(=O)NC4CC4)nnc3c2c1	0.2	-21	9	11%	-3	3.1
34	Cc1nc2c(C#N)c[nH]n2c(=O)c1CCO	·	0	·	1.2%	5	-1.4
35	COc1ccc(C)cc1S(=O)(=O)Nc1ccc2c(c1)OCO2	0.5	-4	18	1.7%	-5	1.5
36	O=C(NCCC1=CCCCC1)c1ccc2c(c1)N(Cc1cccc(Cl)c1)C(=O)c1ccccc1S2(=O)=O	0.6	·	-6	0.5%	·	·
37	O=C(CSc1ccc2nnc(-c3cccnc3)n2n1)Nc1ccc(F)cc1	0.4	?	-6	1.3%	-9	-3.3
38	O=C(/C=C/Nc1ccc(F)cc1)c1cccs1	2.2	4	10	3.3%	-10	-5.0
39	CCOCCn1c(SCC)nc2c1c(=O)[nH]c(=O)n2C	1.4	1	0	0.1%	1	-2.3
40	CC(C)NCCOCCSc1ccc(Cl)cc1	0.8	-2	38	-2.3%	-35	-3.2
41	Cc1nnc2c(N3CCN(c4ccccc4F)CC3)nc3ccccc3n12	-0.3	·	21	5.5%	·	·
42	Cc1ccc2occ(CC(=O)N(Cc3ccc(Cl)cc3)C3CCS(=O)(=O)C3)c2c1 (stereo unspecified)	1.3	·	-6	0.1%	·	·
43	CCNc1c([N+](=O)[O-])c(=O)n(CC)c2ccccc12	1.4	?	-17	1.8%	-5	-0.8
44	COc1cccc(OC)c1C(=O)Nc1nnc(-c2cccs2)s1	0.0	2	-1	0.7%	-7	2.5
45	Nc1nc(NCCCN2CCOCC2)nc(Nc2ccccc2)c1[N+](=O)[O-]	1.0	-2	3	3.5%	-37	0.6
46	N#C/C(=C\c1c(Oc2ccccc2F)nc2ccccn2c1=O)C(=O)NC1CCS(=O)(=O)C1 (stereo unspecified)	6.5	0	-7	0.7%	-2	-0.2
47	COc1cc(Cl)c(C)cc1NC(=O)CSc1nc2ccccc2o1	0.7	2	34	1.5%[38.3 µM]	-18	-2.2
48	CNCC(O)Cn1c2c(c3ccccc31)CCCC2 (stereo unspecified)	0.7	-20	-3	-2.0%	-6	-1.8
49	CC(C)c1nc(N2CCN(C(=O)c3ccco3)CC2)c(C#N)c2c1COC(C)(C)C2	2.5	-10	-5	0.7%	8	14
50	COc1ccc(NC(=O)c2sc3nc(N4CCCC4)c4c(c3c2N)CC(C)(C)OC4)c(OC)c1	0.0	5	2	4.8%	-22	-2.1

3 entries from above, arranged by molecular weight, low to high.
#	molecule	TRPML1 agonist	Six1-Eya2 blk	TRPML1 inh	PINK1 expr mod	D2 PAM	D2 agonist
39	CCOCCn1c(SCC)nc2c1c(=O)[nH]c(=O)n2C	1.4	1	0	0.1%	1	-2.3
33	CCOc1ccc2[nH]c3nc(SCC(=O)NC4CC4)nnc3c2c1	0.2	-21	9	11%	-3	3.1
29	C=CCn1c(C)cc(C(=O)CSc2nnc3c(Cl)cc(Cl)cn23)c1C	-0.6	6	-8	0.6%	-18	-0.3

(next part)
#	molecule	TRPML1 agonist	Six1-Eya2 blk	TRPML1 inh	PINK1 expr mod	D2 PAM	D2 agonist
51	CC(C)CCn1c(SCC(N)=O)nc2c1c(=O)n(C)c(=O)n2C	0.5	13	-16	0.5%	-1	-1.2
52	Cc1cccc(C)c1NC(=O)C(=O)NCC(c1cccnc1)N1CCc2ccccc21 (stereo unspecified)	-0.3	·	34	1.7%	·	·
53	C=CCn1c(C(C)NC(=O)c2cccs2)n[nH]c1=S (stereo unspecified)	0.1	3	-11	3.3%	2	5.2
54	COc1ccc(CNC(=O)Cn2nc(-c3ccc4c(c3)OCCO4)ccc2=O)cc1	-0.2	-4	-2	1.1%[38.3 µM]	-8	-2.0
55	COc1cc(C(CC(=O)Nc2cccc(C)n2)N2Cc3ccccc3C2=O)cc(OC)c1OC (stereo unspecified)	0.3	-3	14	3.3%	1	-0.8
56	CCN(CC)C(=S)NC(=O)C12CC3CC(CC(C3)C1)C2	4.4	-1	18	-1.1%	-4	-4.4
57	COc1ccc(CCNC(=O)/C=C\c2ccccc2)cc1OC	-1.0	8	6	-0.2%	-2	-0.7
58	O=C1c2ccccc2C(=O)N1CCc1ccccn1	0.6	4	-20	4.1%[38.3 µM]	-13	-4.8
59	Cc1ccc2c(c1)cc1c(=O)n(CC(=O)NC3CCCCC3)nc(C)n12	0.0	·	38	1.8%	·	·
60	CCc1nc2ccc(C(=O)Nc3ccc4c(c3)OCC(=O)N4)cn2c1N(C)C(=O)C1CCCCC1	-1.0	1	·	1.7%	-1	3.1
61	CC(C)(C)Cc1nnc(NS(=O)(=O)c2ccc([N+](=O)[O-])cc2)s1	0.1	5	24	0.4%	12	9.1
62	COc1ccc(C(=O)n2nc(C)c(Br)c2C)cc1OC	1.4	-1	11	6.7%	12	-1.9
63	CS(=O)(=O)N1CCC(Oc2ccccc2C(=O)NC(C2CC2)C2CC2)CC1	-0.4	-14	-6	-1.4%	-1	-15
64	CC(C)Cc1nc(N2CCOCC2)c(C#N)c2c1CCC2	0.7	15	2	-0.5%	1	-6.5
65	CCOC(=O)c1c(C)noc1-c1ccco1	-0.6	-19	4	1.3%	-5	3.2
66	CCn1c(CC(=O)Nc2ccccc2)nnc1SCC(=O)NC1CCCC1	0.1	5	3	-2.4%	-5	1.7
